Vaccinia mCherry = vaccinia inhibition (mCherry reporter); Vaccinia virus mCherry reporter infection, fluorescence; about a quarter of the inactives have no number; Potency, µM (series often up to 36.5 µM), inactives show at the highest dose activity change, negative = inhibition, actives largely listed as inhibitors; 0.63% of 310,000 active; AID 720579; active = well fitted inhibition curve with a large enough effect; inconclusive = small, poorly fitted or top-dose-only effect; inactive = no such curve, though single readings can be large or run the other way; tested in A549 cells; note: nearly all actives have a fitted effect of over 35% in size; inactives centre near -10
Vaccinia Venus = inhibitors of vaccinia virus (Venus reporter); Vaccinia virus Venus reporter expression, fluorescence; Potency, µM (top dose mostly 36.5 µM), inactives show at the top dose activity change, negative = inhibition, hits mostly inhibitors; 0.46% of 330,000 active; AID 720580; active means well fitted inhibition curve with a large enough effect; inconclusive means small, poorly fitted or top-dose-only effect; inactive means no such curve, though single readings can be large or run the other way; tested in A549 cells; note: nearly all actives have a fitted effect of over 30% in size; inactives centre near -10
Numbers without * were called inactive; i = inactive; ? = inconclusive; . = not tested or not shown; & = joins results of further samples; [ ] = another dose, or the depositor's remark. % is set by controls: 0 for no effect and ±100 for the full control effect; potency is the fitted concentration of half-maximal effect.

SMILES	Vaccinia mCherry	Vaccinia Venus
CC(=O)c1c(C)n(C)c2ccc(OC(=O)c3ccco3)cc12	-20%	-22%
O=S(=O)(NCC1CCCO1)c1cccc(C(F)(F)F)c1 (configuration not stated)	i	-15%
CO[C@]1(NC(=O)C(C(=O)O)c2ccc(O)cc2)C(=O)N2C(C(=O)O)=C(CSc3nnnn3C)COC21 (some centres not stated)	-11%	-6%
CCOCCn1c(CN2CCN(c3ccccc3)CC2)nc2c1c(=O)n(C)c(=O)n2C	-20%	-12%
CN1C(=O)C(C)(C)c2cc(S(=O)(=O)N3CCCC3C(=O)Nc3ccc(F)cc3)ccc21 (configuration not stated)	-2%	-29%
Cc1cccc(NC(=O)CN2C(=O)N/C(=C/c3cc(C)n(C)c3C)C2=O)c1	-7%	2%
COC(=O)C1=C[C@@H](C(=O)OC)[C@@H]2C3=C(C(=O)[C@@]2(C)NC(=O)c2ccccc2)[C@H](C)C(C(=O)OC)=C(C(=O)OC)[C@@H]3C1	4%	-12%
O=C(COC(=O)Cc1ccc(S(=O)(=O)N2CCCCC2)s1)Nc1ccc2c(c1)OCO2	0%&0%	-17%&-13%
Cc1ccc(CN2C(=O)c3ccccc3Sc3ccc(C(=O)OCc4ccco4)cc32)cc1	-6%	7%
CCc1ccc2[nH]c(=O)c(CN(Cc3ccco3)C(=S)NCC3CCCO3)cc2c1 (configuration not stated)	i	-9%
CCc1ccc(CNCc2cccnc2)cc1	-5%	-14%
CCCOc1ccc(C(=O)NC(=S)N2C[C@H]3C[C@H](C2)c2cccc(=O)n2C3)cc1	0%	-14%
O=C(O)c1cc(NC(=O)c2ccc3c(c2)C(=O)N(Cc2cccnc2)C3=O)cc(C(=O)O)c1	-9%	-7%
COc1ccc(CNC(=O)CN(C(=O)c2csnn2)c2cccc(C(C)=O)c2)cc1	i	-8%
CS(=O)(=O)Nc1ccc(C(=O)CSc2nnc(C3CC3)n2C2CC2)cc1	-16%	-5%
O=C1Nc2ncccc2OC1CCO (configuration not stated)	-19%	-10%
CCOc1ccccc1N(C(=O)Cn1nnnc1-c1ccc(C)o1)C(CC)C(=O)NC(C)(C)C (configuration not stated)	-23%	-19%
COc1cccc(C(=O)Nc2ccccc2SCc2cc(=O)c3cccc(C)c3[nH]2)c1	-3%	-2%
COc1ccc(N2CCN(C(=O)c3cnc(N4CCCC4)nc3C)CC2)cc1	-2%	-1%
CCOC(=O)c1cccc(NC(=O)Cn2ncc3c4ccccc4n(Cc4ccccc4)c3c2=O)c1	-13%	-10%
CCOc1ccc(OCC)c(NS(=O)(=O)c2c(C(=O)N3CCCCCC3)c(C)n(C)c2C)c1	-7%	-6%
Cc1cccc(C)c1NC(=O)C1C(c2ccccc2)=Nc2ccccc2N1C(=O)c1cnccn1 (configuration not stated)	?	-24%
Cc1c(C(=O)OCCOc2ccc(Br)cc2)sc(=S)n1C	i	3%
CNC(=O)CSc1nnc(NC(=O)Nc2ccccc2)s1	0%[7.34 µM]	1%[7.34 µM]
COc1ccc2c(c1)OC[C@H]1[C@@H]2N2C(=O)[C@@H](C)NC(=O)[C@@]2(C)[C@H]1c1ccccc1	i	-4%
Continued.
SMILES	Vaccinia mCherry	Vaccinia Venus
CC1CCCN(C(=O)C2CCN(S(=O)(=O)c3ccccc3)CC2)C1 (configuration not stated)	-7%	-12%
CC(C)CCNC(=O)CN(C(=O)CCC(=O)Nc1ccccn1)c1ccc2c(c1)OCO2	.	-11%
COc1cc(/C=C/c2nc(C#N)c(NCCc3ccccc3)o2)cc(OC)c1OC	-16%	-21%
Cc1ccc([N+](=O)[O-])cc1S(=O)(=O)Nc1ccc(OCC(=O)N2CCOCC2)cc1	i	-14%
CC(C)CCNC(=O)c1onc(CSc2ccc(F)c(F)c2)c1C(=O)NCCC(C)C	-18%	-2%
NC(N)=NC1=NC(=O)/C(=C/c2ccccc2-n2cccn2)S1	-8%	-6%
Cc1[nH]c2ccccc2c1C(=O)CN1CCCC(C)C1 (configuration not stated)	-17%	-3%
O=C(NCCN1CCOCC1)c1cn(-c2ccccc2)nc1-c1cccs1	-12%	0%
CN(C)CCOc1ccc2c(c1)Sc1ccccc1CC2=O	-2%	-7%
O=C(COc1cccc2c1CCN(Cc1ccc(Cl)cc1)C2=O)N1CCOCC1	i	-9%
COc1cccc(NC(=O)OCCN2CCN(Cc3ccccc3)CCC2=O)c1	-6%	-2%
Cc1ccc(OCC(=O)N2CCc3ccccc3C2)cc1C	-13%	-20%
CCCc1cc(=O)[nH]c(SCC(=O)c2c(N)n(CC(C)C)c(=O)n(C)c2=O)n1	?	?
CCCCC(=O)NC1(C(F)(F)F)C(=O)Nc2c1c(=O)n(C)c(=O)n2C (configuration not stated)	.	1%
Nn1c(SCC(=O)NC2CCCCC2)nnc1-c1ccccc1F	i	-9%
CC(C)OCCCNC(=S)NNC(=O)C(c1ccccc1)c1ccccc1	-4%	-3%
CC(=O)OC1CCC2(C)C(CCC3C4CC(N5CC5)C(C(C)=O)C4(C)CC(=O)C32)C1 (configuration not stated)	-16%	-25%
O=C(O)CC/C(=N/NC(=O)CNC(=O)C(c1ccccc1)c1ccccc1)c1ccccc1	-16%	-13%
Cc1ccc(C)c(S(=O)(=O)N2CCCOC2CNC(=O)C(=O)NCc2ccc3c(c2)OCO3)c1 (configuration not stated)	-21%	-8%
CC(C)(C)OC(=O)C[C@H]1C/C=C\C[C@@H](CC(=O)N(CCO)Cc2ccccc2)C(=O)N[C@H](Cc2c[nH]c3ccccc23)COC1=O	-22%	?
COc1cccc2cc(C(C)N(CCCN3CCOCC3)C(=S)Nc3cccc(C)c3)oc12 (configuration not stated)	-3%	-19%
CC1(Oc2cccc(F)c2)CCN(Cc2ccc(-c3ccccn3)cc2)C1 (configuration not stated)	8%	-3%
CCCCOc1ccccc1C1C(C(N)=O)=C(C)Nc2nnnn21 (configuration not stated)	-7%	2%
CCOc1cc(/C=C2/C(=O)ON=C2C)ccc1OCc1ccccc1F	-16%	-10%
CC(C)(C)OC(=O)C[C@@H]1C/C=C\C[C@H](CC(=O)N[C@H](CO)Cc2ccccc2)C(=O)N2CCC[C@H]2COC1=O	-11%	-7%
Continuation.
SMILES	Vaccinia mCherry	Vaccinia Venus
O=C(CN1C(=O)COc2ccc(S(=O)(=O)NC3CCCC3)cc21)NCc1ccccc1Cl	-1%	-4%
Fc1ccc(CSc2ncnc3c2oc2ccccc23)cc1	-10%	-8%
Cc1csc2nc(-c3cccc(NC(=O)c4ccccc4Cl)c3)cn12	-5%	-8%
Cc1cc(C)c2sc(N(CCCN(C)C)C(=O)c3ccc(S(=O)(=O)N(C)C4CCCCC4)cc3)nc2c1	14µM*	13µM*
Cc1cccc(NC(=O)c2ccc([N+](=O)[O-])o2)c1	?	?
CCCCNC(=O)N(C)c1nncnc1C(=O)NC	-15%	-19%
O=C(NCCc1ccccc1)c1ccco1	.	0%
Cc1noc(/C=C/c2ccccc2F)c1S(=O)(=O)N1CCC(C(=O)NCC(C)c2ccccc2)CC1 (configuration not stated)	-5%[7.34 µM]	-7%[7.34 µM]
COC(=O)c1ccc(C(C(=O)NC2CCCCC2)N(CCN2CCOCC2)C(=O)Cc2cccs2)cc1 (configuration not stated)	-11%	-13%
CC(=O)Nc1ccc(NC(=O)C(C)OC(=O)C2CCC2)cc1 (configuration not stated)	-11%	-3%
CCCCCC(=O)NNC(=O)c1c(O)c2ccccc2n(CC)c1=O	-24%	-13%
O=C(NCCNC(=O)c1ccccn1)c1ccc(Cl)cc1	-26%	-8%
Cc1cccc(NC(=O)c2ccc(Cn3nc(N4CCN(c5ccccc5)CC4)ccc3=O)o2)c1C	-24%	-19%
O=C1CC2(CCCC2)CC(=O)N1CCCCNCC1COc2ccccc2O1 (configuration not stated)	-20%	?
CCCNC(=O)CCC(=O)N1Cc2cccc(OC)c2Oc2ncccc21	-13%	-10%
C#CCN(C[C@@H]1[C@@H](OC(=O)NCc2ccccc2F)[C@@H](OC(=O)NCc2ccccc2F)Cn2c(=O)ccc(=O)n21)S(=O)(=O)c1ccc(C)cc1	?	7.1µM*
COc1cc(C(=O)N2CCN(c3cccc(C)c3C)CC2)cc(OC)c1OC	?	-20%
COc1cccc(CNC(=O)c2c(OC)cc(=O)n3c2CCN(C(=O)c2cc(C)ccc2C)CC3)c1	-1%	0%
O=C(CCCN1C(=O)/C(=C/c2ccccc2)SC1=S)N1CCOCC1	?	?
COCc1cccc(-c2csc(C(NC(C)=O)c3cccc(F)c3)n2)c1 (configuration not stated)	-5%	0%
Cc1ccc(CN2CCCC2(C)C(=O)NC(C)C)cc1 (configuration not stated)	i	-10%
COc1cc2c(c(OC)c1OC)C(=O)CO2	i	-9%
CN(C(=O)c1ccc2c(c1)OCO2)C1(C(=O)NC2CCCCC2)CCCCC1	i	-1%
CC(C)c1ccc(NC(=O)COC(=O)/C=C/c2cccc([N+](=O)[O-])c2)cc1	i	-17%
O=C(Nc1ccnn1C1CCN(Cc2ccccc2)CC1)C1CCCC1	-22%	-20%

Molecules listed so far with fluorine, in the order listed:
SMILES	Vaccinia mCherry	Vaccinia Venus
O=S(=O)(NCC1CCCO1)c1cccc(C(F)(F)F)c1 (configuration not stated)	i	-15%
CN1C(=O)C(C)(C)c2cc(S(=O)(=O)N3CCCC3C(=O)Nc3ccc(F)cc3)ccc21 (configuration not stated)	-2%	-29%
CC(C)CCNC(=O)c1onc(CSc2ccc(F)c(F)c2)c1C(=O)NCCC(C)C	-18%	-2%
CCCCC(=O)NC1(C(F)(F)F)C(=O)Nc2c1c(=O)n(C)c(=O)n2C (configuration not stated)	.	1%
Nn1c(SCC(=O)NC2CCCCC2)nnc1-c1ccccc1F	i	-9%
CC1(Oc2cccc(F)c2)CCN(Cc2ccc(-c3ccccn3)cc2)C1 (configuration not stated)	8%	-3%
CCOc1cc(/C=C2/C(=O)ON=C2C)ccc1OCc1ccccc1F	-16%	-10%
Fc1ccc(CSc2ncnc3c2oc2ccccc23)cc1	-10%	-8%
Cc1noc(/C=C/c2ccccc2F)c1S(=O)(=O)N1CCC(C(=O)NCC(C)c2ccccc2)CC1 (configuration not stated)	-5%[7.34 µM]	-7%[7.34 µM]
C#CCN(C[C@@H]1[C@@H](OC(=O)NCc2ccccc2F)[C@@H](OC(=O)NCc2ccccc2F)Cn2c(=O)ccc(=O)n21)S(=O)(=O)c1ccc(C)cc1	?	7.1µM*
COCc1cccc(-c2csc(C(NC(C)=O)c3cccc(F)c3)n2)c1 (configuration not stated)	-5%	0%

Returning to the listing with the 2 entries that preceded the break.
SMILES	Vaccinia mCherry	Vaccinia Venus
CC(C)c1ccc(NC(=O)COC(=O)/C=C/c2cccc([N+](=O)[O-])c2)cc1	i	-17%
O=C(Nc1ccnn1C1CCN(Cc2ccccc2)CC1)C1CCCC1	-22%	-20%
Cc1cccc(CN2C[C@]34C=C[C@@H](C[C@@H]3S2(=O)=O)O4)c1	-4%	-20%
CC1(C)C(=O)OC(c2c3ccccc3cc3ccccc23)C(C)(C)C1=O (configuration not stated)	-5%[7.34 µM]	-1%[7.34 µM]
COc1ccc(/C=N/N=C2/NC(=O)CC(C(=O)O)S2)cc1 (configuration not stated)	-8%	1%
OCCCc1cn(-c2ccccc2)c2ccccc12	-5%	-8%
O=S(=O)(NCc1cccc(Br)c1)c1ccc(-c2cc(C(F)(F)F)on2)s1	-12%	-12%
CC(=O)Nc1ccc(OCC(O)CN2CCN(c3ccccc3Cl)CC2)cc1 (configuration not stated)	i	-18%
CCN1C(=O)CC(C(=O)NCCc2ccc(S(N)(=O)=O)cc2)SC1=Nc1ccc(OC)cc1 (configuration not stated)	i	-8%
CCCCn1c(N)c(N(CCOC)C(=O)c2ccc(S(=O)(=O)N(CC)c3ccccc3)cc2)c(=O)[nH]c1=O	-20%	0%
CCOC(=O)CCNC(=O)Nc1ccc2nc(C)n(Cc3ccc(Cl)cc3)c(=O)c2c1	-22%	-13%
COc1ccccc1CN1C[C@@H]2C[C@@H](c3ccc(C)c(C)c3)N3CCC[C@@]23C1=O	?	-1%
COc1ccc(Cc2nc(-c3ccc(Cl)cc3)no2)cc1	-3%	-2%
FC(F)(F)c1cccc(N2CCN(c3ncnc4c3nc3n4CCCC3)CC2)c1	-28%[7.34 µM]	-23%[7.34 µM]
CNc1ccc(-c2ccccc2OC)cn1	20%	5%
CCOP(=O)(OCC)c1nc(-c2ccc(Cl)cc2Cl)oc1N1CCOCC1	-8%	-26%
COc1cc(C(=O)O)cc(Br)c1OC1CCCC1	-15%	-14%
COc1ccc(C(=O)N2CCC(C)(C(=O)NS(=O)(=O)C3CC3)C2)cc1F (configuration not stated)	-3%	-2%
Cc1cc(C)cc(Cn2c3ccc(NC(=S)NCc4ccccc4F)cc3c(=O)n2C)c1	15%	-10%
Cc1ccc(SCC(=O)Nc2ccc(S(=O)(=O)Nc3nccs3)cc2)cc1	i	-2%
Cc1ccc(CNC(=O)c2cn(C)c3ccc(S(=O)(=O)N(C)C4CCCCC4)cc3c2=O)cc1	-21%	-6%
COc1cc(-c2nnc(SCCOc3ccc(C)c(Cl)c3)o2)cc(OC)c1OC	-4%	-5%
CCN1CC(CN(C)Cc2nc(COc3ccccc3)no2)CC1=O (configuration not stated)	-11%	-2%
Cc1ccccc1-c1noc(CSc2nnc(Cc3ccccc3)n2-c2ccc(F)cc2)n1	i	-18%
COC(=O)COc1cccc2c(=O)n(CC(=O)NCc3ccc(F)cc3)ccc12	-4%	-20%
Cc1noc(C)c1S(=O)(=O)Nc1ccc2c(c1)C(=O)N([C@H](C)CO)C[C@H](C)[C@@H](CN(C)S(=O)(=O)c1ccc(F)cc1)O2	i	-1%
COc1ccc2c(c1)NP(=S)(c1ccccc1)N2C (configuration not stated)	-19%	11%
Cc1nn(C(C)C(=O)N2CCc3ccccc3C2)c(=O)c2cc3occc3n12 (configuration not stated)	.	-17%
CN(C)S(=O)(=O)Oc1ccsc1C(=O)Nc1ccc(C(F)(F)F)cc1	-14%	-19%
COc1ccccc1NC(=O)c1cccnc1	-9%	3%
